Screens from PubChem.
gsp ag – agonists of gsp mutant (McCune-Albright syndrome); gsp mutant cells, cAMP HTRF, 30 min; control for the full effect not named in the record; Potency, µM (titrated, usually from 76.9 µM), for inactives: at the top dose activation (cAMP increase), most hits filed as activators; 340,000 compounds, 0.13% hits; AID 624287; active = well fitted activation curve with a large enough effect; inconclusive = small, poorly fitted or top-dose-only effect, or another doubt; inactive = no such curve, though single readings can be large or run the other way; cell line not stated here;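 further: phosphodiesterase inhibitor Ro 20-1724 added with compounds to block cAMP breakdown; potency means the concentration at half of the fitted maximal effect; nearly all actives have a fitted effect of over 60% in size; about a fifth of the inactives were tested at one dose only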
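Cells in DMEM/10% FBS with G418 were pretreated with compounds in DMSO plus […] (300 uM stock) for 30 min at 37C. cAMP was measured by HTRF (cAMP-d2 plus anti-cAMP antibody-K) after 30 min at room temperature.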
PINK1 modulator – PINK1 expression modulation. PINK1 immunofluorescence, high-content cytometry, 24 h. Potency, µM (series often up to 76.6 µM), for the others: at the highest dose activation (PINK1 increase), actives largely listed as activators. 410,000 compounds, 0.2% hits. AID 624263; active = well fitted activation curve with a large enough effect; inconclusive = small, poorly fitted or top-dose-only effect; inactive = flat fitted curve, though single readings scatter; cell line not stated here;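 further: potency means the concentration at half of the fitted maximal effect; % of control where 0% means no effect; nearly all actives have a fitted effect of over 65% in size; a mitochondrial uncoupler was the plate control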
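Decision-based qHTS: stable cells, 24 h exposure to five compound concentrations, CCCP as control. Fixed cells stained for PINK1 plus nuclear, mitochondrial and cell markers, cytometer read.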
D2 agonist – agonists of human D2 dopamine receptor (beta-arrestin); P14416; DiscoveRx PathHunter D2 beta-arrestin, luminescence, 90 min; 100% = 57 uM dopamine signal; activation, % (concentration not given with the values); 360,000 compounds, 0.084% hits; in the data active = activation above about 40%; inconclusive = about 15% to 40%; inactive = below about 15%; further: the text of the record calls up to 30% inactive
Target sequence (P14416 whole entry, looked up): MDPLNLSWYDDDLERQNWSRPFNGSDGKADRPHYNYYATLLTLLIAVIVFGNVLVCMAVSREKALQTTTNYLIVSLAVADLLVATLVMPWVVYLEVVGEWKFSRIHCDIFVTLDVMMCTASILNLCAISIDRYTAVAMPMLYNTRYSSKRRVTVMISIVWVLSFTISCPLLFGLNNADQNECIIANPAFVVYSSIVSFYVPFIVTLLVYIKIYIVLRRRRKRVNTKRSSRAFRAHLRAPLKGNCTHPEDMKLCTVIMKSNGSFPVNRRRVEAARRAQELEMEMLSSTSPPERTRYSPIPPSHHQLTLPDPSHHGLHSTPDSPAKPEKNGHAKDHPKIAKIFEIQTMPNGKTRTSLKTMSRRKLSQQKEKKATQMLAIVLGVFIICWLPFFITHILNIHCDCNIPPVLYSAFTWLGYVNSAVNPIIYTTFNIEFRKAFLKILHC
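DiscoveRx PathHunter D2 beta-arrestin cells (2,100/well) attached overnight, then compound-stimulated 90 min at 37 C in HBSS/10 mM HEPES/0.1% Tween-20 buffer; beta-galactosidase complementation read by luminescence after 1 h at ambient temperature. Dopamine 57 uM final (EC100) as control.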
Menin MLL FP FL – displaces fluorescein MLL peptide from human menin. Fluorescence polarization, fluorescein-MLL peptide displacement from menin. FP activity change, % at 61.4 µM. 290,000 tested, under 10 active; inconclusive = falling polarisation curve, or a change in total fluorescence; inactive = total fluorescence flat and polarisation flat or rising; no compound was filed as active; the % refers to the polarisation; negative = inhibition;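 further: % of control where 0% means no effect; inhibitors lower the polarisation; unlabelled MLL peptide was the positive control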
gsp antagonist – antagonizes gsp, the McCune-Albright syndrome mutation; gsp-mutant cells, cAMP HTRF, 30 min; control for the full effect not named in the record; Potency, µM (titrated, usually from 76.9 µM), without a hit: top-dose activity change, negative = inhibition, hits mostly inhibitors; 340,000 compounds, 0.4% hits; active = falling curve of any shape with a large fitted effect; inconclusive = falling curve, mostly with a smaller effect; inactive = flat or rising curve; cell line not stated here;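 further: intracellular cAMP measured with PDE inhibitor Ro 20-1724 present during compound exposure; potency means the concentration at half of the fitted maximal effect; on the % scale 0 is the no-effect control and ±100 the full control effect; nearly all actives have a fitted effect of over 65% in size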
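G418-selected cells were plated in DMEM/10% FBS for 16-24 h at 37C, then treated with compounds plus the PDE inhibitor […] (300 uM solution added) for 30 min at 37C. Intracellular cAMP was measured by HTRF after 30 min lysis at room temperature.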
Sfp inh – Sfp phosphopantetheinyl transferase inhibition | Q9F4F7 | Biochemical Sfp PPTase activity, qHTS | Potency, µM, for the others: max response, negative = inhibition, actives largely listed as inhibitors | 310,000 compounds, 3.5% hits | AID 1490; active means well fitted inhibition curve with a large enough effect; inconclusive means small, poorly fitted or top-dose-only effect, or another doubt; inactive means no such curve, though single readings can be large or run the other way;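 further: the enzyme is Sfp with the accession as filed and its product quenches rhodamine fluorescence; potency means the concentration at half of the fitted maximal effect; 0% = enzyme reaction without inhibitor and -100% = no enzyme wells; top concentration of the series not given in the record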
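Reaction rates are the 30-min fluorescence difference (ex 525, em 598 nm) in wells containing 15 nM Sfp, 5 uM rhodamine-CoA and 12.5 uM BHQ-2-YbbR at pH 7.6 with 10 mM MgCl2.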
ClpP mod – qHTS Assay for Activators of ClpP. ATP-dependent Clp protease proteolytic subunit (Bacillus subtilis (strain 168)), P80244. purified B. subtilis ClpP, FRET peptide cleavage, 20 min. Potency, µM (top dose mostly 57.5 µM), without a hit: at the highest dose activity change, negative = active. 340,000 compounds, 1.9% hits. AID 651965, 2013; active = well fitted falling curve with a large enough effect; inconclusive = small, poorly fitted or top-dose-only effect; inactive = no such curve, though single readings can be large or run the other way; further: potency means the concentration at half of the fitted maximal effect; the source files actives as falling curves though it sought activators and does not explain the sign; nearly all actives have a fitted effect of over 65% in size; many hits overshoot -100%
Target sequence (P80244 whole entry, looked up): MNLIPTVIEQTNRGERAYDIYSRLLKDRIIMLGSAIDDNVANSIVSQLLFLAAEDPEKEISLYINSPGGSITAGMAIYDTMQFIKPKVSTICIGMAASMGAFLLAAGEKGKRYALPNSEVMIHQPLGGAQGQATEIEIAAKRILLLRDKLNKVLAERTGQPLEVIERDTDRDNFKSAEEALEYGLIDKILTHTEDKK
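ClpP 10 microg/mL final, pH 8 Tris/KCl buffer with BSA, glycerol, Tween-20; compound pinned in; FRET-FV substrate; RT 20 min; Ex320/Em430; ΔFRET vs ADEP 5.8 microM, DMSO, no enzyme.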
The depositor's hits bear a star; ? = inconclusive; nt = not tested or not shown; & = joins results of further samples; [ ] = another dose, or the depositor's remark.

SMILES	gsp ag	PINK1 modulator	D2 agonist	Menin MLL FP FL	gsp antagonist	Sfp inh	ClpP mod
CC(OC(=O)C1CCN(S(=O)(=O)c2ccc3c(c2)OCCO3)CC1)C(=O)N(C)c1ccccc1 (stereo not drawn)	27%	-0.4%	0.0	nt	-1%	nt	-0.2%
Cc1cccc(NC(=O)c2nc[nH]c2C(=O)N2CCc3ccccc3C2)c1	6%	5.2%	-1.3	nt	-6%	nt	-0.1%
Cc1cc(NCCCN2CCOCC2)n2nc(C)c(-c3ccccc3)c2n1	2%	0.3%	-0.8	1.2	-15%	1%	-13%
COc1cc(-n2ccnc2SC)c(Cl)cc1Cl	29%	-0.3%	-2.9	4.6	11%	16%	-2.4%
O=C(O)/C=C/C(=O)NCCC(c1ccccc1)c1ccccc1	0%[15.4 µM]	-2.1%	-0.8	0.6	-4%	3%	nt
COc1ccc(C(=O)N2CCC(O)(c3ccc(F)cc3)CC2)cc1OC	-13%	-0.7%	0.5	2.5	13%	13%	-4.5%
COc1cc(/C=C2/C(=O)NN(c3cccc(Cl)c3)C2=O)cc(OC)c1O	-24%	-0.7%	1.8	?	?	-14%	-1.3%
C[C@H](CO)N1C[C@H](C)[C@H](CN(C)C(=O)CCC(F)(F)F)OCc2cnnn2CCCC1=O	-4%	1.1%	-2.3	nt	nt	nt	0.1%
CC(C)(C)OC(=O)N/N=C/c1ccc(N2CCOCC2)s1	-6%	19%	2.1	?	-25%	-8%	-4.5%
COC(=O)c1ccccc1NC(=O)NCC1CCCO1 (stereo not drawn)	-6%	-2.2%	-0.7	1.4	6%	-3%	25µM*
CCC(=O)Nc1ccccc1N1CCN(c2ccc(F)cc2)CC1	?	-0.6%	-3.1	0.0	-4%	4%	nt
CCOc1ccc(N(CC(=O)Nc2ccc(Cl)cc2)S(C)(=O)=O)cc1	-38%[inhibitor]	0.5%	-3.5	nt	nt	nt	0.9%
CC(Oc1cc2oc(=O)cc(-c3ccccc3)c2cc1Cl)C(=O)NCC1CCC(C(=O)O)CC1 (stereo not drawn)	nt	1.1%	2.1	-4.6	-13%	6%	-13%
COc1cccc(NC(=O)Nc2nnc(CC(=O)NCc3ccccc3)s2)c1	2%	2.7%	-4.2	2.0	1%	-14%	1.7%
Cc1ncc(CSc2nnnn2-c2ccccc2)c(N)n1	24%	nt	-1.0	0.5	2%	4%	2.0%
COc1ccccc1CNCCS(=O)(=O)NCc1ccccc1OC	nt	-0.3%	-3.3	nt	5%	nt	0.7%
O=C(CCCCCn1c(=S)[nH]c2ccc(N3CCOCC3)cc2c1=O)NCCc1ccccc1	-2%[15.4 µM]	?	-1.9	0.8	?	1%	1.2%
Cc1ccc(NC(=O)CSCC(=O)Nc2ccc(S(=O)(=O)N3CCCC3)cc2)cc1	34%	-0.4%	-2.2	nt	-4%	nt	-1.0%
Cc1cccc(N(C)C(=O)c2cc(S(=O)(=O)N3CCCCC3)c[nH]2)c1	-2%	0.6%&-0.5%	3.0	2.5	-3%	9%	0.8%&2.0%
CCCCOc1nc(N2CCOCC2)nc(C)c1[N+](=O)[O-]	-3%	0.7%	0.4	1.6	-12%	7%	nt
COc1ccccc1NC(=O)CCS(=O)(=O)c1cc2c(cc1Cl)NC(=O)CO2	-24%	1.1%	0.1	2.0	3%	21%	0.6%
CCOCCn1c(CN(Cc2ccccc2)Cc2ccccc2)nc2c1c(=O)[nH]c(=O)n2C	4%	-0.4%[38.3 µM]	-5.2	8.2	-22%	-1%	-0.7%
CC1=C(C(N)=O)C(c2ccc(Cl)c(Cl)c2)n2ncnc2N1 (stereo not drawn)	-13%[15.4 µM]	3.5%	15	0.5	8%	22%	nt
O=C1C2C3C=CC(C3)C2C(=O)N1c1ccc2c(c1)OCO2 (stereo not drawn)	-9%	-0.6%[38.3 µM]	0.5	3.1	3%	0%	-0.9%
O=C1CC[C@@H](C(=O)O)N1	nt	-0.3%	4.2	0.0	3%	18%	-1.8%

Taken from above.
Reading for O=C(CCCCCn1c(=S)[nH]c2ccc(N3CCOCC3)cc2c1=O)NCCc1ccccc1 under gsp ag: -2%[15.4 µM]
Reading for Cc1ccc(NC(=O)CSCC(=O)Nc2ccc(S(=O)(=O)N3CCCC3)cc2)cc1 under PINK1 modulator: -0.4%

The listing continues:
SMILES	gsp ag	PINK1 modulator	D2 agonist	Menin MLL FP FL	gsp antagonist	Sfp inh	ClpP mod
C[C@@H](C(=O)Nc1ccc2ccccc2c1)[C@H]1C[C@]1(C)[C@H](NS(=O)(=O)c1ccc(-c2ccccc2)cc1)c1ccccc1	nt	-1.1%	-2.2	0.1&-4.4	3%	10%&29%	-9.7%
CCN1C(=O)N[C@@H](c2ccccc2)[C@@H](C(=O)OC)[C@H]1C	nt	0.2%	-2.4	-9.3[11.7 µM]	6%	-3%	1.0%
C/C(=N\NC(=O)c1nn(C)cc1Br)c1ccc(NC(=O)c2ccncc2)cc1	11%[15.4 µM]	8.4%	-7.0	2.5	-8%	15%	0.2%
O=C(NCc1ccccc1)N[C@@H](Cc1c[nH]c2ccccc12)C(=O)O	-17%	-3.2%	-2.8	6.7	11%	4%	-5.3%
O=C(CCc1ccccc1)NCc1ccccc1	3%	-0.1%	-1.8	-3.8	-8%	17%	1.0%
O=C(/C=C/c1ccc2c(c1)OCO2)Nc1nc2ccccc2s1	4%	11%	-0.5	-3.9	-1%	5%	-8.8%
COc1ccccc1NC(=O)c1ccc(NC(=O)COC(=O)C2(C)CC2(Cl)Cl)cc1 (stereo not drawn)	0%[15.4 µM]	0.5%	11	4.8	-15%	14%	?
CNC(=O)C[C@H]1C(=O)N(c2ccc(OC)cc2)C[C@@H]1CSC	-14%	0.0%	-9.2	nt	nt	nt	-1.6%
C/C(=N\NC(=O)C1(C)CC1(Br)Br)c1ccc(NC(=O)C2CCC2)cc1 (stereo not drawn)	?	13%	-0.9	-0.1	-14%	16%	-1.6%
CCOC(=O)[C@H]1[C@H]2COc3ccc(OC)cc3[C@@H]2N2C(=O)CN(Cc3ccccc3)C(=O)[C@@]12C	?	0.5%	2.3	nt	-6%	nt	1.0%
Cc1cccc(NC(=S)N(Cc2ccc(Br)cc2)Cc2ccc(C(=O)O)cc2)c1	-32%[inhibitor]	1.5%	-5.7	-1.2	-22%	8%	-0.5%
Cc1ccccc1/C=N/NC(=O)c1cccnc1	-23%	1.0%	-7.3	5.0	2%	24%	-1.9%
CCCC(CCC(=O)Nc1ccc(C(=O)OC)cc1)C(=O)O (stereo not drawn)	-56%[inhibitor]	-0.4%	1.6	3.1	6%	18%	109%
CCNc1nc(NC(C)C)nc(Oc2ccc(/C=N/O)cc2)n1	-5%	-1.3%	-0.3	2.8	-17%	0%	-1.1%
COc1ccc(C[C@H]2CN3C(=NC[C@H]3Cc3ccccc3)N2CCNC(=O)CCC2CCCCC2)cc1	-6%	-0.8%	-2.6	0.6	12%	-6%	-2.1%
O=C(Nc1cccc2ccccc12)c1csc([C@@H]2O[C@H](CO)[C@@H](O)[C@H]2O)n1	nt	-0.5%	-2.6	nt	nt	nt	0.0%
O=C(NN=C1CCCCCC1)c1cn(-c2ccccc2)nc1-c1ccccc1	14%[15.4 µM]	11%	1.0	3.7	-12%	-11%	-1.5%
O=C(Nc1ccccc1O)c1cccc(NC(=O)c2ccco2)c1	-8%	-1.8%	-1.0	-2.7	-11%	12%	2.0%
CCCCCCSc1cccc(-c2nc3ccc(Cl)cn3c2NCCCC)c1	23%	7.1%&2.3%	-1.9	nt	9%	nt	-5.5%&-9.8%
O=C(OCC(=O)N1CCOCC1)c1ccc(N2CCOCC2)c([N+](=O)[O-])c1	12%[15.4 µM]	0.0%	-3.8	-7.4	8%	8%	-4.1%
N#Cc1ccc(-c2nc3ccccc3c(=O)n2O)cc1	11%	2.2%	-1.0	1.4	-4%	-2%	0.5%
COc1ccccc1Cc1c(-c2ccc(C#N)cc2)nc2c(C)cc(Br)cn12	nt	0.0%	-3.8	nt	nt	nt	-10%
C=CCSc1nnc(C)c(/C=C/Nc2ccc(Cl)cc2)n1	-5%[15.4 µM]	2.5%	-2.5	?	-12%	-11%	nt
CCn1c(SCC(=O)Nc2cc(C(C)(C)C)nn2-c2ccccc2)nnc1-c1cccs1	-5%[15.4 µM]	-1.3%	-2.8	0.6	-12%	16%	nt
Cc1nc2ccccc2n1CC(O)Cn1c(C(F)(F)F)nc2ccccc21 (stereo not drawn)	?	0.4%	-3.0	4.2	0%	16%	1.8%

Remaining list, next part.
SMILES	gsp ag	PINK1 modulator	D2 agonist	Menin MLL FP FL	gsp antagonist	Sfp inh	ClpP mod
COc1ccc(Cc2nc3ccc(C(=O)N(C)C(C)c4nccs4)cc3o2)cc1 (stereo not drawn)	-41%[inhibitor]	-0.1%	-5.9	nt	-13%	-1%	0.7%
CCOc1ccc(C(=O)OCCN(C)C)cc1	23%	-1.0%	-1.9	2.7	6%[15.4 µM]	15%	1.2%
COc1ccc(OC)c(NC(=O)c2ccccc2NC(=O)c2ccco2)c1	43%[15.4 µM]	-0.7%	1.2	1.3	-15%	1%	nt
CCN1CCN(CCCNC(=O)c2ccc3c(c2)NC(=O)c2ccccc2S3)CC1	4%	0.1%	-0.7	2.8	5%	13%	-1.0%
Cc1cccc(C)c1NC(=O)CCS(=O)(=O)c1cccc2nonc12	17%	4.2%&0.3%	1.3	-2.8	5%	11%	-1.4%
CSCCC(C(=O)Nc1ccc2c(c1)OCO2)N1C(=O)c2ccccc2C1=O (stereo not drawn)	-3%	0.1%	-4.1	0.1	-5%	3%	0.0%
C[C@@H]1CN([C@H](C)CO)C(=O)CCCn2nncc2CO[C@H]1CN(C)C(=O)c1ccc(N2CCN(C)CC2)cc1	-48%	-1.9%	-0.3	nt	nt	nt	-2.8%
Cc1cccc2c1cnn2C(=O)CCC(=O)NC1CCCCC1	0%	-0.2%	-4.3	-1.7	3%	0%	-3.1%
Clc1ccccc1OCc1nn2c(-c3ccncc3)nnc2s1	-1%	1.7%[38.3 µM]	2.4	7.0	2%	1%	0.3%
